Screening results deposited in PubChem BioAssay by National Center for Advancing Translational Sciences (NCATS).
Six1-Eya2 inh: inhibitors of human Six1/Eya2 interaction; activity change, % (test concentration not listed); AID 651725; actives 0.56% (n = 360,000); Q15475+O00167; AlphaScreen GST-Six1/His-Eya2 binding, biochemical; hits give low values; control for the full effect not named in the record; in the data active = activity change below about -65%; inconclusive = about -30% to -65%; inactive = above about -30%; note: % is set by controls: 0 for no effect and ±100 for the full control effect; compound concentration not given in the record
Target sequence (O00167 whole entry, looked up): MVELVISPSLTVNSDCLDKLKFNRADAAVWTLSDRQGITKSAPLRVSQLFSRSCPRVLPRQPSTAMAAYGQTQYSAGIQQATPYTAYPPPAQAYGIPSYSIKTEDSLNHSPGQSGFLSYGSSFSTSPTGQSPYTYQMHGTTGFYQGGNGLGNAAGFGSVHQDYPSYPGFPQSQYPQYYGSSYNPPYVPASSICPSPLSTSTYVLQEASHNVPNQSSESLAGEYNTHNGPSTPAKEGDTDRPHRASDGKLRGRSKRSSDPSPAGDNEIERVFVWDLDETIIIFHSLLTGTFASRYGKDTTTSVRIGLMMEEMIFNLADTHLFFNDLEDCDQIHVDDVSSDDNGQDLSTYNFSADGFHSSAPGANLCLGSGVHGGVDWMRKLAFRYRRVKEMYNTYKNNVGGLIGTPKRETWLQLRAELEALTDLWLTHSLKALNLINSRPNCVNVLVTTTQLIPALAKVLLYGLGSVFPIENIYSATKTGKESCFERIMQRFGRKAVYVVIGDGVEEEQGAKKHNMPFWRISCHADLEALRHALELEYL
Target sequence (Q15475 whole entry, looked up): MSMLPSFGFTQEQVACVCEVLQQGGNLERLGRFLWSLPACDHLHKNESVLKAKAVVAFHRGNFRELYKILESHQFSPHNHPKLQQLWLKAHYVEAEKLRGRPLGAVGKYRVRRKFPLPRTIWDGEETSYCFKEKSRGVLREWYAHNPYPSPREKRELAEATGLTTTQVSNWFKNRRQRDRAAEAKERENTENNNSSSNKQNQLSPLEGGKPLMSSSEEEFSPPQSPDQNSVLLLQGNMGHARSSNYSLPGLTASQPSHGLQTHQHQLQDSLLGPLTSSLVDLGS
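AlphaScreen with GST-Six1 and His-Eya2 (5X mix: 250 nM and 500 nM), glutathione donor and nickel acceptor beads; buffer 50 mM Tris pH 8.0, 300 mM NaCl, 1 mM TCEP; 1 h at 37 C in the dark.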
gsp agonist: activates gsp, the McCune-Albright syndrome mutation. AID 624287. actives 0.13% (n = 340,000). Potency, µM (titrated, usually from 76.9 µM), for inactives: top-dose activation (cAMP increase), hits mostly activators. gsp mutant cells, cAMP HTRF, 30 min; control for the full effect not named in the record; active = well fitted activation curve with a large enough effect; inconclusive = small, poorly fitted or top-dose-only effect, or another doubt; inactive = no such curve, though single readings can be large or run the other way; cell line not stated here;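 note: phosphodiesterase inhibitor Ro 20-1724 added with compounds to block cAMP breakdown; potency is the fitted concentration of half-maximal effect; nearly all actives have a fitted effect of over 60% in size; about a fifth of the inactives were tested at one dose only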
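Cells in DMEM/10% FBS with G418 were pretreated with compounds in DMSO plus […] (300 uM stock) for 30 min at 37C. cAMP was measured by HTRF (cAMP-d2 plus anti-cAMP antibody-K) after 30 min at room temperature.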
CtBP-E1A inh: blocks the CtBP interaction with E1A. AlphaScreen GST-E1A/His-CtBP binding, 1536-well; hits give low values; control for the full effect not named in the record. activity change, % (no concentration beside the values). actives 0.49% (n = 340,000). AID 651724; in the data active means activity change below about -65%; inconclusive means about -30% to -65%; inactive means above about -30%; note: % is set by controls: 0 for no effect and ±100 for the full control effect; compound concentration not given in the record
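AlphaScreen with 125 nM GST-E1A and 125 nM His-CtBP (5X stocks) in Tris pH 8.0, 300 mM NaCl, BSA, Tween 20, TCEP. Compounds preincubated 2 h at 37 deg C, then glutathione donor/nickel acceptor beads added for 1 h at 37 deg C in dark.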
gsp antagonist: antagonists of gsp mutant (McCune-Albright syndrome). Potency, µM (highest dose often 76.9 µM), for inactives: at the top dose activity change, negative = inhibition, most hits filed as inhibitors. actives 0.4% (n = 340,000). gsp-mutant cells, cAMP HTRF, 30 min; control for the full effect not named in the record; active = falling curve of any shape with a large fitted effect; inconclusive = falling curve, mostly with a smaller effect; inactive = flat or rising curve; cell line not stated here;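 note: intracellular cAMP measured with PDE inhibitor Ro 20-1724 present during compound exposure; potency is the fitted concentration of half-maximal effect; % is set by controls: 0 for no effect and ±100 for the full control effect; nearly all actives have a fitted effect of over 65% in size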
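Cells in G418 medium, seeded 16-24 h, 37C; buffer exchange to DPBS + 1 mM CaCl2, 0.5 mM MgCl2, 0.05% BSA; cpds in DMSO + […] (300 uM stock), 30 min 37C; HTRF cAMP detection.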
D2 agonist: agonists of human D2 dopamine receptor (beta-arrestin); DiscoveRx PathHunter D2 beta-arrestin, luminescence, 90 min; 100% = 57 uM dopamine signal; actives 0.084% (n = 360,000); P14416; activation, % (no concentration beside the values); in the data active = activation above about 40%; inconclusive = about 15% to 40%; inactive = below about 15%; note: compound concentration not given in the record; the text of the record calls up to 30% inactive
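DiscoveRx PathHunter D2 beta-arrestin cells (2,100/well) attached overnight, then compound-stimulated 90 min at 37 C in HBSS/10 mM HEPES/0.1% Tween-20 buffer; beta-galactosidase complementation read by luminescence after 1 h at ambient temperature. Dopamine 57 uM final (EC100) as control.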
D2 potentiator: human D2 receptor positive allosteric modulation | DiscoveRx D2 beta-arrestin cells, luminescence, 90 min; 100% = 57 uM dopamine signal | potentiation, % (concentration not given with the values) | actives 0.23% (n = 360,000) | AID 624464; active = potentiation of 50% or more; inconclusive = 30% to 50%; inactive = 30% or less;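 note: compound concentration not given in the record; tested on top of an EC20 dose of dopamine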
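D2 cells co-treated with compound plus 50 nM dopamine (EC20) for 90 min at 37 deg C to detect potentiation. Beta-arrestin recruitment was read as enzyme-fragment luminescence after 1 h at ambient temperature. Full response was set by 57 uM dopamine.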
* hit, by the source's call; u = inconclusive; x = not tested or not shown; [ ] = another dose, or the depositor's remark. An unsorted share of the library, and some 1.4% of all compounds hit somewhere here.

SMILES	Six1-Eya2 inh	gsp agonist	CtBP-E1A inh	gsp antagonist	D2 agonist	D2 potentiator
CCN(CC)CCCN(Cc1cc2cc3c(cc2[nH]c1=O)OCO3)C(=S)NCCCN(C)C	0	-22%	3	-1%	-4.0	-2
N#C/C(=C(/O)CCCl)c1ccccn1	0	7%	x	9%	-3.6	-9
COc1cc(C(=O)/C=C/Nc2ccc(NC(C)=O)cc2)cc(OC)c1OC	-17	3%	-13	13%	-3.0	-18
CC1=NCCN1S(=O)(=O)c1cc(Cl)ccc1Cl	4	-26%	-17	5%	-4.0	-3
COc1ccc(C(=O)NNC(=O)c2ccc(S(=O)(=O)N3CC(C)OC(C)C3)cc2)cc1 (stereo not drawn)	1	-17%	x	61%[activator]	1.5	-4
O=C(CCCn1c(=S)[nH]c2ccccc2c1=O)NCCSCc1ccccc1	-4	9%	-2	-3%	2.8	-7
CCCCOC(=O)Nc1ccc(C(=O)OCCC)cc1	20	-4%	22	-30%	-2.3	-4
O=C(CCc1nc(-c2ccc(F)cc2)no1)Nc1cccc(C(=O)NC2CC2)c1	1	5%	-2	-22%	-1.7	1
COc1ccc(C)cc1-n1cnnn1	5	-7%	x	8%	-1.4	2
Cc1ccc(CC(=O)NCC(c2ccco2)N(C)C)cc1C (stereo not drawn)	8	3%[15.4 µM]	0	15%	-4.4	-13
CCC1CCCCN1Cc1nc2c(c(=O)n(C)c(=O)n2C)n1CC(C)C (stereo not drawn)	-1	u	-11	-4%	3.2	-3
CCc1c(O)nc(SC2CC(=O)N(c3ccccc3)C2=O)[nH]c1=O (stereo not drawn)	5	-25%	-3	6%	-1.9	-20
O=C(Nc1cccc2ccccc12)N1CCOCC1	1	-1%	0	-16%	-1.2	-11
Cc1ccccc1NC(=O)c1cc2ccccn2n1	2	-4%	3	7%	-2.5	-4
Cc1cc(NC(=O)Cn2nc(C)c([N+](=O)[O-])c2C)no1	10	-2%	1	-3%	0.0	0
O=C(CN1CCN(C(=O)c2ccco2)CC1)Nc1ccc(Cl)c(C(F)(F)F)c1	-13	-8%	-4	-3%	-0.5	-5
CCCCn1nc(C(=O)N(CCOC)c2c(N)n(CCCC)c(=O)[nH]c2=O)c2ccccc2c1=O	1	0%	2	10%	5.4	-1
CCCc1nc2oc3cc(OC)ccc3c(=O)c2c(=O)n1Cc1ccco1	-10	-41%[inhibitor]	-6	-11%	-1.3	-11
CCN(CC)CCNC(=O)CCCCn1c(=S)[nH]c2c([nH]c3ccc(OC)cc32)c1=O	-26	u	-26	u	-2.9	-25
COCCNC(=O)c1ccc(S(=O)(=O)N2CCCc3ccccc32)cc1	6	-4%	0	-3%	3.4	-6

Shown with two lines to a compound: entries from further up
Screens in order – Six1-Eya2 inh, gsp agonist, CtBP-E1A inh, gsp antagonist, D2 agonist, D2 potentiator
COCCNC(=O)c1ccc(S(=O)(=O)N2CCCc3ccccc32)cc1
  6, -4%, 0, -3%, 3.4, -6
COc1ccc(C)cc1-n1cnnn1
  5, -7%, x, 8%, -1.4, 2
CC1=NCCN1S(=O)(=O)c1cc(Cl)ccc1Cl
  4, -26%, -17, 5%, -4.0, -3
O=C(Nc1cccc2ccccc12)N1CCOCC1
  1, -1%, 0, -16%, -1.2, -11

More compounds.
SMILES	Six1-Eya2 inh	gsp agonist	CtBP-E1A inh	gsp antagonist	D2 agonist	D2 potentiator
COc1ccc(C(C(=O)NC2CCCCC2)N(CC2CCCO2)C(=O)CCCC(=O)Nc2ccccn2)cc1 (stereo not drawn)	-2	1%	3	-10%	12	-2
O=C(OC1CCCCC1=O)c1cccc(S(=O)(=O)NCc2ccccc2)c1 (stereo not drawn)	-2	-7%	3	-2%	-2.4	-17
Cc1ccc(S(=O)(=O)c2cn(C)c3cc(N4CCN(C)CC4)c(F)cc3c2=O)c(C)c1	-2	-3%	2	0%	-1.1	-3
Cc1ccccc1C(=O)Nc1cccc(-c2ccc(N3CCOCC3)nn2)c1	1	u	5	-6%	-0.4	-5
CCc1ccccc1OCC(=O)OCC(=O)Nc1cc(C)on1	3	-50%[inhibitor]	0	-14%	-2.5	-2
CNc1ccccc1C(C)(C)c1cc(-c2cccc(Br)c2)no1	-1	-2%	-4	-3%	0.4	-6
CCCNC(=O)C1CCN(S(=O)(=O)c2ccc(Br)cc2)CC1	6	u	6	-2%	-2.2	-5
Cc1ccc(C(=O)NCC#N)cc1	-1	-3%[15.4 µM]	1	-3%	-5.4	-11
CC1(C)Cc2c(c(N3CCOCC3)nc3sc(C#N)c(N)c23)CS1	0	35%	1	-21%	-3.5	3
CC1=C(C(=O)N2CCCC(N3CCN(c4ccccc4C)CC3)C2)OCCO1 (stereo not drawn)	0	u	3	-1%	-2.8	-30
CCOc1ccc(C(=O)N(CC(=O)Nc2cccc(C)c2C)CC2CCCO2)cc1OC (stereo not drawn)	-1	1%	8	6%	-5.8	-21
CC1=C(C(=O)N(C(C)C)C(C)C)CC(CC(=O)NC2CCCCC2)C(=O)N1CCCN1CCCC1=O (stereo not drawn)	9	x	10	x	-4.5	0
O=C(CCN1C(=O)c2ccccc2S1(=O)=O)Nc1ccccc1O	2	-22%	3	12%	3.2	14
CCc1cc(=O)oc2cc(OCC(=O)O)c(Cl)cc12	7	-15%	4	0%	-2.5	-16
COc1cc(CO)cc(Br)c1OCc1cccnc1	9	-12%	6	12%	-3.2	-5
CCCCN(C(=O)CCC(=O)Nc1cc(C)on1)C(C(=O)NC(C)(C)C)c1cccc(OC)c1OC (stereo not drawn)	5	18%	-5	2%	-1.0	-11
O=C(c1cccc(Cl)c1)N1CCN(Cc2ccccc2)CC1	-1	-14%	x	6%	-3.2	-32
O=S(=O)(NCC1CCN(Cc2ccccc2)CC1)c1ccccc1C(F)(F)F	-6	-4%[15.4 µM]	-6	10%	0.8	-20
COc1ccc(/C=N/n2cnnc2)cc1Oc1nc(Cl)ncc1F	11	11%[15.4 µM]	12	-5%	5.1	-1
Cc1cc(C(=O)N/N=C/C=C/c2ccc(Br)cc2)n[nH]1	-3	-2%	4	-9%	-0.2	-7
O=C(O)CSCC(=O)NCc1cccc(C(F)(F)F)c1	11	u	5	9%	-2.0	-1
CCC(C)N1C(=O)N(c2cccc(Cl)c2)C(C)(O)CC1(C)C (stereo not drawn)	6	-7%	x	-3%	-3.7	-6
On1nnc2ccc(C(F)(F)F)cc21	7	-2%	14	20%	-2.6	-3
Cc1cc(NC(=O)CCC(=O)N(Cc2ccco2)C(C(=O)NC2CCCC2)c2ccccc2F)no1 (stereo not drawn)	3	-1%[15.4 µM]	9	-14%	0.6	-2
O=C(NCCCN1CCOCC1)c1ccc(CS(=O)(=O)c2ccc(Br)cc2)o1	8	0%	0	-4%	-1.2	-6
COc1cc(OC)cc(C(=O)N[C@H](C(=O)NC2CCCc3ccccc32)C(C)C)c1 (stereo partly drawn)	3	u	8	5%	-0.9	-2
c1ccc(Nc2nc(-c3ccccn3)cs2)cc1	u	5%[15.4 µM]	0	0%	1.1	-1
Cc1ccc(C(=O)c2oc3ccccc3c2N)cc1	15	-24%	2	-24%	-5.4	-14
COc1cc(CCC(=O)NNC(=O)c2ccc(Cl)cc2)cc(OC)c1OC	6	28%	9	2%	0.6	5
Cc1cccc(C)c1NC(=O)CNC(=O)CCCc1c[nH]c2ccccc12	1	-15%	1	5%	-1.0	18
Cc1ccc(N(Cc2ccc(C(=O)NC3CCCCC3)cc2)S(C)(=O)=O)cc1C	2	-48%[inhibitor]	1	-6%	-2.4	3
COc1ccccc1NC(=S)NCc1ccccc1Cl	-18	11%[15.4 µM]	0	-12%	2.6	-3
CCCNC(=O)c1n[nH]c(=O)c2ccccc12	-6	7%	2	8%	-1.9	-4
COC(=O)c1ccc(Oc2cc(C)nc(-n3nc(C)cc3C)n2)cc1	-17	-16%	-13	8%	-1.7	-10
CC(=O)N1CCc2cc(S(=O)(=O)NCCCN3CCCCC3)ccc21	1	3%	4	21%	-1.2	-20
CC(C)n1cc(/C(N)=N/O)c(=O)n(Cc2ccccc2)c1=O	1	-16%	x	9%	-1.3	8
O=[N+]([O-])c1cc(CN(CCO)CCO)ccc1O	-2	3%[15.4 µM]	-1	-6%	2.8	-4
CCOC(=O)CN1C(=O)N[C@@H](c2cccc(C(F)(F)F)c2)[C@H](C(C)=O)[C@H]1C	-2	-7%	8	7%	6.9	-2
Cc1ccc(NS(=O)(=O)c2ccc3c(c2)CCN3C(=O)CCC(=O)O)cc1Cl	-5	22%	-17	4%	1.0	-4
CCOc1ccccc1-n1c(SCC(=O)N2CCCC2)nnc1-c1ccoc1C	-3	1%	-1	-7%	-4.1	-12
COc1ccc(CC(=O)Nc2cccc(C)n2)cc1OC	-3	13%[15.4 µM]	2	-7%	0.9	-1
CSc1nc2c(cnn2-c2ccccc2)c(=O)n1N	-5	6%	x	0%	0.9	-6
O=C(NCCN1CCN(S(=O)(=O)c2ccccc2)CC1)C(=O)Nc1ccc(F)cc1	3	5%	-1	0%	-1.7	-3
O=C(C(=O)N1CCN(c2ccc(F)cc2)CC1)c1cn(CC(=O)N2CCOCC2)c2ccccc12	-9	28%	-10	-21%	-3.9	-10
CCCN1CCN(CCCNC(=O)c2ccc3c(=O)n(CCc4ccccc4)c(=O)[nH]c3c2)CC1	4	-10%	3	-5%	9.4	6
Cc1ccc(C(=O)Nc2ccc(S(=O)(=O)N3CCCC3)cc2)s1	-2	-27%	x	1%	-2.8	-19
Nc1c(N(Cc2ccccc2)C(=O)COc2ccc(F)cc2)c(=O)[nH]c(=O)n1Cc1ccccc1	-3	-44%[inhibitor]	2	-25%	-5.2	-18
NS(=O)(=O)c1ccc(CCNC(=O)c2cccnc2)cc1	5	4%	7	4%	-1.5	-10
CCOC(=O)c1cnc(SC)nc1N	-6	-36%	3	6%	-0.4	-10
C=CC[C@@H](CC(=O)N(CCO)Cc1ccccc1)C(=O)NC[C@@H](OC(=O)[C@@H](CC=C)Cc1ccc(F)cc1)c1ccccc1	-9	x	0	u	-1.2	-5
COc1ccc(Nc2cc(C(=O)NCCCN3CCN(C)CC3)c3ccccc3n2)cc1	-10	-37%[inhibitor]	-4	-8%	-4.3	-12
NS(=O)(=O)c1ccc(NC(=O)/C=C/c2cccc(Cl)c2)cc1	0	15%	x	-12%	6.2	-10
Cc1ccc(C)n1-c1ccc(C(=O)Nc2ccccc2)cc1	18	2%	x	12%	-1.6	-7
C=CCOc1c(Cl)cc(CNCCC)cc1Cl	5	-3%	-1	7%	-3.2	-22
CN(CC(=O)Nc1ccccc1Cl)C(=O)CSc1nc2ccccc2s1	-2	0%	9	1%	-0.6	7
